Compound activity as filed in PubChem BioAssay.
ClpP mod: qHTS Assay for Activators of ClpP; purified B. subtilis ClpP, FRET peptide cleavage, 20 min; AID 651965, 2013; Potency, µM (top dose mostly 57.5 µM), for the others: at the top dose activity change, negative = active; 340,000 compounds, 1.9% hits; active = well fitted falling curve with a large enough effect; inconclusive = small, poorly fitted or top-dose-only effect; inactive = no such curve, though single readings can be large or run the other way; also: potency is read from the fitted curve at half-maximal effect; the source files actives as falling curves though it sought activators and does not explain the sign; nearly all actives have a fitted effect of over 65% in size; many hits overshoot -100%
Target sequence (P80244 whole entry, looked up): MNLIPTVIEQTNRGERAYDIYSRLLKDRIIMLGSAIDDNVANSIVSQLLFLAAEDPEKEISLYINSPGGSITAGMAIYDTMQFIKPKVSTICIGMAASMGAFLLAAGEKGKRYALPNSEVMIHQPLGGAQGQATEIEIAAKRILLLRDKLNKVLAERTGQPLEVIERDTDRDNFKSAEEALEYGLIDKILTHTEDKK
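FRET quenching reversal measured ClpP activation: 10 microg/mL B. subtilis ClpP at pH 8 with the FRET-FV decapeptide, read at 430 nm after 320 nm excitation. The 20-min minus 0-min signal was scaled between DMSO/no-enzyme wells and ADEP (5.8 microM final).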
Menin-MLL FL inh: displaces fluorescein MLL peptide from human menin. AID 1766. Fluorescence polarization, fluorescein-MLL peptide displacement from menin. 290,000 tested, under 10 active. FP activity change, % at 61.4 µM; inconclusive = falling polarisation curve, or a change in total fluorescence; inactive = total fluorescence flat and polarisation flat or rising; no compound was filed as active; the % refers to the polarisation; negative = inhibition;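 also: % of control where 0% means no effect; inhibitors lower the polarisation; unlabelled MLL peptide was the positive control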
TRPML1 blocker: human mucolipin-1 channel inhibition; 390,000 compounds, 0.02% hits; TRPML1-inducible cells, Ca2+ dye fluorescence, FDSS; active compounds read low; inhibition of EC80 agonist-evoked calcium signal; activity change, negative = inhibition, % (no concentration beside the values); in the data active means activity change below about -50%; inconclusive means about -30% to -50%; inactive means above about -30%;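 also: stimulus is agonist 54-4 at its EC80 concentration; % is scaled to controls: 0 for no effect and ±100 for the full control effect; compound concentration not given in the record; the text of the record puts the active cut at -80%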
Target sequence (Q9GZU1 whole entry, looked up): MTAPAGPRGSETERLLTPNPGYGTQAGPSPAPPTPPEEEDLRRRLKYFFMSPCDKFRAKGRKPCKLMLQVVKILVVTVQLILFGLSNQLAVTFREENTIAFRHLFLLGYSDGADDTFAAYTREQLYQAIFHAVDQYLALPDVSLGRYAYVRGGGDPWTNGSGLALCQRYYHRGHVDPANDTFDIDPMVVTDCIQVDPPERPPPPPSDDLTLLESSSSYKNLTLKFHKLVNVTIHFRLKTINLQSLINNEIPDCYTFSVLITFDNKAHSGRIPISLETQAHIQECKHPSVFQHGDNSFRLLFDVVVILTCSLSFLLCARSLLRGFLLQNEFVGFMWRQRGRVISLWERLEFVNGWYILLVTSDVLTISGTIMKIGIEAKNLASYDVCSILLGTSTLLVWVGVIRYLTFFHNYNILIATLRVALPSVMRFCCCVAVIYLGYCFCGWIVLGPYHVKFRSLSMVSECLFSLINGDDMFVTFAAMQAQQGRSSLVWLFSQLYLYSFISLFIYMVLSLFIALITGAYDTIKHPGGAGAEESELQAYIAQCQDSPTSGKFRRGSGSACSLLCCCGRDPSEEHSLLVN
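Calcium fluorescence in TRPML1-DL cells induced overnight with Tet: a 110 s read after compound pin addition, then a 110 s antagonist read after challenge with 54-4 at 4 uM final (EC80).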
Sfp inh: inhibitors of Bacillus subtilis Sfp phosphopantetheinyl transferase; Q9F4F7; Biochemical Sfp PPTase activity, qHTS; Potency, µM, without a hit: max response, negative = inhibition, hits mostly inhibitors; 310,000 compounds, 3.5% hits; active = well fitted inhibition curve with a large enough effect; inconclusive = small, poorly fitted or top-dose-only effect, or another doubt; inactive = no such curve, though single readings can be large or run the other way;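 also: the enzyme is Sfp with the accession as filed and its product quenches rhodamine fluorescence; potency is read from the fitted curve at half-maximal effect; 0% = enzyme reaction without inhibitor and -100% = no enzyme wells; top concentration of the series not given in the record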
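Step 1, compound plus 15 nM Sfp-PPTase, 15 min, room temperature. Step 2, add rhodamine-CoA (5 uM) and BHQ-2-YbbR (12.5 uM). Step 3, read 525/598 nm fluorescence at 0 and 30 min.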
TRPML1 ag: human mucolipin-1 channel agonism; Q9GZU1; TRPML1-expressing cells, Ca2+ dye fluorescence, FDSS; host cell line not named in the record; reference of the full effect not given here; activation, % (no concentration beside the values); 410,000 compounds, 0.12% hits; AID 624414; in the data active = activation above about 50%; inconclusive = about 30% to 50%; inactive = below about 30%; also: 0% is about no effect; the text of the record puts the active cut at 80%
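In this qHTS format, compounds were pin-transferred onto Ca8-dye-loaded TRPML1-DL cells induced with Tet overnight, and intracellular Ca2+ fluorescence was recorded kinetically for 110 s after a 10 s baseline. A subsequent 4uM final 54-4 (EC80) addition followed by a second 110 s read served as the antagonist phase.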
TRPV1 potentiator: potentiators of human vanilloid receptor 1 (TRPV1); TRPV1-expressing cells, Fluo-8 calcium influx, capsaicin EC20 potentiation; host cell line not named in the record; control for the full effect not named in the record; 320,000 compounds, 0.02% hits; potentiation, % at 8.33 µM; active means potentiation above 80%; inconclusive means 30% to 80%; inactive means below 30%; also: 0% is about no effect
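TRPV1-expressing cells were cultured overnight at 35.5C and loaded with Fluo-8 calcium dye for 40 to 90 min at room temperature. After a 10 s baseline, compound was added and calcium influx was read kinetically for 3 min (ex 480/em 520 nm).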
PINK1 modulator: modulators of PINK1 expression | PINK1 immunofluorescence, high-content cytometry, 24 h | Potency, µM (doses to about 76.6 µM), inactives show top-dose activation (PINK1 increase), actives largely listed as activators | 410,000 compounds, 0.2% hits; active = well fitted activation curve with a large enough effect; inconclusive = small, poorly fitted or top-dose-only effect; inactive = flat fitted curve, though single readings scatter; cell line not stated here;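 also: potency is read from the fitted curve at half-maximal effect; % of control where 0% means no effect; nearly all actives have a fitted effect of over 65% in size; a mitochondrial uncoupler was the plate control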
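Cells are seeded, rested 12 hours, then given compound at five concentrations or DMSO for 24 hours. After fixation, blocking and antibody staining, PINK1 amount and mitochondrial localization are scored; CCCP serves as control.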
Active calls of the source: *; ? = inconclusive; · = no result given; [ ] = dose if it differs, or a comment.

SMILES | ClpP mod | Menin-MLL FL inh | TRPML1 blocker | Sfp inh | TRPML1 ag | TRPV1 potentiator | PINK1 modulator
Cc1ccc(S(=O)(=O)N2CCCC2C(=O)Nc2nccs2)cc1 (configuration not stated) | -2.1% | 0.6 | 45 | 16% | 1.0 | 6 | -1.6%
O=C(CCCn1c(SCc2cccc([N+](=O)[O-])c2)nc2ccccc2c1=O)NCC1CCCO1 (configuration not stated) | · | 0.0 | -6 | 0% | 1.4 | -2 | 1.1%
Cc1ccc(C)c(CSc2nnc(C)n3c2cc2sccc23)c1 | ? | · | 21 | · | 0.2 | · | 0.7%
CCN(CC(=O)NCc1ccc(Cl)cc1)C(=O)/C=C/c1ccccc1 | · | 1.5 | 35 | 6% | 0.0 | -1 | 1.7%
O=C(CSCC(=O)Nc1ccccc1)N/N=C/c1c(O)ccc2ccccc12 | 0.8% | ? | 3 | -7% | 1.5 | 17 | 2.2%[38.3 µM]
O=C(COC(=O)COc1ccc(Br)cc1)NCc1ccc2c(c1)OCO2 | · | · | 7 | · | -0.3 | · | -0.4%
CCOC(=O)c1c(=O)n(O)c2ccc(C)cc2[n+]1[O-] | 0.4% | 0.6 | 14 | -10% | 0.2 | 8 | -2.9%
COc1ccccc1NC(=O)Nc1nc(C(N)C2CCCCC2)cs1 (configuration not stated) | 0.1% | · | · | · | 0.0 | · | -0.7%
O=C(CCCc1c[nH]c2ccccc12)N1CCN(c2ccc(N3CCOCC3)nn2)CC1 | ? | 2.2 | 51 | -14% | -0.7 | · | -1.7%
Cc1csc(NC(=O)CCC(=O)N(CC(=O)NC2CCCC2)Cc2ccco2)n1 | -1.2% | -1.3 | 3 | 1% | 1.2 | -5 | -1.6%
CCOc1ccc(S(=O)(=O)NC(=O)c2ccccc2)cc1 | -1.6% | · | 24 | 36%[activator] | 0.4 | 4 | 0.4%
O=C(O)COc1ccc2nsnc2c1Cl | 14µM* | -0.8 | 8 | 11% | -1.1 | -4 | 2.4%
CCn1cc(C(=O)Nc2cc(C)ccc2C)c(=O)c2ccc(C)nc21 | · | 0.2 | · | 16% | · | 10 | ·
Clc1ccc(C2=NN=C3COc4ccccc4N3C2)cc1 | 1.6% | 1.9 | 8 | 3% | 0.7 | -19 | -0.3%
COc1cccc(CNC(=O)CCCC(=O)NC(C)CCc2ccccc2)c1 (configuration not stated) | 1.1% | 1.5 | 6 | 8% | 0.6 | -13 | 1.0%
CCOC(=O)C1=C(C)NC2=C(C(=O)c3ccccc32)C1c1cccc2ccccc12 (configuration not stated) | · | -7.5 | 3 | 8% | 1.1 | 2 | 4.0%
O=C(O)CCCNC(=O)c1cncc(Br)c1 | 28µM* | -1.6 | -3 | 17% | -0.1 | 8 | 3.3%
CC(=O)N1CCc2cc(Br)cc(S(=O)(=O)N3CCN(c4cccc(C(F)(F)F)c4)CC3)c21 | -1.4% | · | -1 | · | -0.5 | · | 0.7%
O=C(CCNC(=O)N1CC(=O)Nc2ccccc21)Nc1ccc(F)c(Cl)c1 | 0.7% | · | -13 | 11% | -0.9 | 3 | -0.3%
COc1ccccc1N1CCN(C(=O)C(NS(=O)(=O)c2cccs2)c2ccccc2)CC1 (configuration not stated) | -2.0% | 7.0 | 17 | 6% | -0.5 | · | -0.8%[38.3 µM]
Cc1noc(NS(=O)(=O)c2ccc(NC(=O)CCN3C(=O)c4ccccc4C3=O)cc2)c1C | · | -0.2 | 3 | 10% | -0.3 | -6 | 0.4%
O=C(CS(=O)(=O)c1ccc(F)cc1)Nc1nccs1 | · | · | 2 | · | 0.1 | -10 | 0.5%
O=C(CCc1nc2ccccc2c(=O)[nH]1)OCCOc1ccc(Cl)cc1 | · | 2.0 | 9 | -16% | 2.5 | -15 | 1.0%
COc1ccc(NC(=O)NC2CCCCC2C)cc1 (configuration not stated) | 1.2% | -0.2 | 15 | 19% | -0.3 | -8 | 0.6%
Cc1oc2ncn(C)c(=O)c2c1C(=O)NCc1ccccc1 | -2.6% | · | 23 | · | -0.2 | · | -0.8%
S=c1[nH]nc(COc2ccccc2)n1/N=C/c1cccs1 | 0.7% | 4.0 | -20 | 79µM* | 1.3 | -14 | -1.1%
C=CCN(c1ccc(C(=O)Nc2ccc3c(c2)n(C)c(=O)n3C)cc1)S(C)(=O)=O | -0.9% | -2.9 | -10 | 1% | -0.1 | 2 | 0.7%
CC1=C(C(=O)OCc2ccc(C)cc2)C(c2c(Cl)cccc2Cl)CC(=O)N1 (configuration not stated) | 5.2% | · | 21 | · | -0.5 | · | 3.0%
O=C(Cn1nc(-c2ccco2)ccc1=O)Nc1ccc(Cl)c(Cl)c1 | · | -4.1 | -7 | 56µM* | -0.5 | -19 | -0.2%
COc1ccc(-n2c(/C=C3\C(=O)N(C)c4ccccc43)nc3ccccc3c2=O)cc1 | · | -3.4 | -5 | -3% | 2.4 | 1 | -0.4%
O=C(Nc1cccc(Oc2ccccc2)c1)C1Cc2c(-c3ccc4c(c3)OCO4)ccnc2O1 (configuration not stated) | 4.3% | · | · | · | 0.7 | · | 3.7%
Cc1ccc(S(=O)(=O)N2CCN(c3nc(-n4cccn4)nc4ccccc34)CC2)cc1 | -5.6% | · | · | · | -0.6 | · | 2.6%
O=C(O)C1CCCCC1C(=O)Nc1ccc(Cl)cc1 (configuration not stated) | -1.6% | 0.2 | -6 | 3% | 1.3 | 6 | ?
CCn1c(C(=O)Nc2ccsc2C(=O)OC)cc2sc(Cl)cc21 | -6.9% | -2.8 | -13 | ? | -0.3 | -4 | 3.6%
CN(Cc1cnn(C)c1)C(=O)C1CCC(=O)N(Cc2cccc(C(F)(F)F)c2)C1 (configuration not stated) | -1.6% | · | 8 | 12% | 0.3 | -1 | -1.5%
COc1ccc(NS(=O)(=O)c2ccc3c(c2)CC(C)N3C(=O)C2CCC2)cc1OC (configuration not stated) | 2.2% | · | 0 | · | 0.2 | · | -0.7%
O=S(=O)(NCC1OCCc2ccccc21)c1ccc(S(=O)(=O)N2CCOCC2)cc1 (configuration not stated) | -4.5% | -0.1 | 7 | 5% | 0.2 | 4 | -1.7%[38.3 µM]
Cc1[nH]c(=S)sc1Cc1ccc(Cl)c(Cl)c1 | · | 3.6 | · | ? | · | -30 | ·
COc1cccc(C2c3cc4c(cc3OC(NNC(N)=O)C2C)OCO4)c1O (configuration not stated) | -6.2% | · | 65 | · | 2.5 | · | -2.9%
O=C(COC(=O)c1ccccc1)Nc1cccc(S(=O)(=O)N2CCOCC2)c1 | · | -0.9 | 22 | 19% | -0.4 | 5 | -0.7%
Cc1cc(C)nc(NS(=O)(=O)c2ccc(NC(=O)CSc3nc4ccccc4[nH]3)cc2)n1 | 3.7% | 0.6 | 9 | 10% | 1.2 | 9 | 4.0%
CCOc1ccccc1NC(=O)CCNS(=O)(=O)c1ccc2[nH]c(=O)oc2c1 | 0.9% | · | 1 | 12% | 0.0 | 13 | 0.4%
CCOC(=O)c1[nH]c(C)c(CCC(=O)N2CCN(c3cc(Cl)ccc3C)CC2)c1C | -3.8% | · | -2 | · | -0.1 | · | 0.7%
O=C(CSc1ccc(-c2ccc(Br)cc2)nn1)NC1CCCC1 | -1.7% | -5.6 | 12 | -2% | 2.1 | 1 | -2.5%
CCN1CCN(Cc2ccc(NC(=O)Nc3ccccc3Cl)cc2)CC1 | -0.2% | 7.3 | 0 | -12% | -0.1 | 6 | 0.2%
c1ccc(N=Nc2ccc3cccccc2-3)cc1 | · | · | 8 | · | 2.2 | · | 3.2%
COc1cc(NC(=O)C(C)C)ccc1NC(=O)c1ccco1 | -1.8% | 0.3 | -1 | -3% | 0.3 | 7 | 2.3%[38.3 µM]
COc1ccccc1N1C(=O)CC(Sc2nc(C)cc(C)n2)C1=O (configuration not stated) | 0.6% | 4.7 | 10 | 13% | 0.2 | -2 | ·
COc1ccccc1C(=O)Nc1ccc(OCc2cc(=O)n3ccsc3n2)cc1 | 0.6% | · | -16 | · | -0.5 | · | 2.2%
COc1ccc(NC(=O)COC(=O)C2CCN(S(=O)(=O)c3cccs3)CC2)cc1 | 0.7% | 0.5 | -6 | 6% | -1.0 | 0 | -0.7%
Cc1ccc(S(=O)(=O)/C(C#N)=C/c2c(N3CCN(Cc4ccccc4)CC3)nc3ccccn3c2=O)cc1 | -3.6% | · | -4 | -2% | -0.3 | 1 | -0.7%
Cc1ccc(S(=O)(=O)N2CCOCC2)cc1C(=O)N1CCN(S(=O)(=O)c2cccc(F)c2)CC1 | 1.0% | · | 4 | · | 0.3 | -7 | 0.6%
CCOC(=O)c1c(NC(=O)COC(=O)CCOc2ccc(C)cc2)sc(C(=O)N(C)C)c1C | 0.7% | · | 24 | · | 0.3 | -5 | 0.2%
O=C(O)CCC(=O)N1CCN(c2cccc(Cl)c2)CC1 | -2.6% | -2.3 | 1 | 14% | -0.2 | 23 | -1.2%
Cc1ccc(NC(=O)CSc2nnc(-c3nnn(-c4ccc(F)cc4)c3C)o2)cc1Br | -3.6% | · | -4 | · | -0.4 | · | 3.6%
Cc1cc(-c2c(C(=O)N3CCOCC3)c(C)nn2-c2ccccc2)no1 | -1.8% | -0.5 | -3 | 22% | 0.0 | · | 0.4%

As a working copy, 2 of the compounds above.
SMILES | ClpP mod | Menin-MLL FL inh | TRPML1 blocker | Sfp inh | TRPML1 ag | TRPV1 potentiator | PINK1 modulator
c1ccc(N=Nc2ccc3cccccc2-3)cc1 | · | · | 8 | · | 2.2 | · | 3.2%
COc1cc(NC(=O)C(C)C)ccc1NC(=O)c1ccco1 | -1.8% | 0.3 | -1 | -3% | 0.3 | 7 | 2.3%[38.3 µM]

Complete entries as entered above.
Shown for `O=C(O)COc1ccc2nsnc2c1Cl` → ClpP mod = 14µM*; Menin-MLL FL inh = -0.8; TRPML1 blocker = 8; Sfp inh = 11%; TRPML1 ag = -1.1; TRPV1 potentiator = -4; PINK1 modulator = 2.4%
Shown for `C=CCN(c1ccc(C(=O)Nc2ccc3c(c2)n(C)c(=O)n3C)cc1)S(C)(=O)=O` → ClpP mod = -0.9%; Menin-MLL FL inh = -2.9; TRPML1 blocker = -10; Sfp inh = 1%; TRPML1 ag = -0.1; TRPV1 potentiator = 2; PINK1 modulator = 0.7%
